Source: PubChem (several laboratories)
Beta2AR agonist = beta2AR agonists driving receptor internalization, primary screen, cell-based, FAP fluorogen, flow cytometry. Am2.2-beta2AR cells; reference of the scale not given here. response, % (no concentration beside the values). 340,000 compounds, 0.43% hits;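 active means response above a set limit, near 3 SD of response in nonfluorescent compounds, cut at about 42% in these data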;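 further: stock transfer was 100 nL into about 11 µL; a reference agonist was the positive control; negative values mostly stem from fluorescent compounds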
FGF22 binding = binders of human FGF22 protein, primary screen, FGF22 synaptogenesis inhibitor project, biophysical, thermal shift, single point; AID 651658, 2012; 340,000 compounds, 1.5% hits; Fibroblast growth factor 22 (Homo sapiens), Q9HCT0; calls only at 9.99 µM; recombinant FGF22 thermal shift, SYPRO orange fluorescence; percent of sucrose octasulfate shift, DMSO zero;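 active means melting point raised past a set limit in the mean and every replicate; three in four hits are not shown here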
Target sequence (Q9HCT0 whole entry, looked up): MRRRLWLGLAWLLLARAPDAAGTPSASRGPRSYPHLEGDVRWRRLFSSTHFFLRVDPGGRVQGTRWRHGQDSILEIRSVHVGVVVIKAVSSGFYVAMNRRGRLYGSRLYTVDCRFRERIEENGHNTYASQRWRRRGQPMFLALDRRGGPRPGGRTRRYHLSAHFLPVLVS
LANA-H2A inh = blockers of LANA interaction with H2A/H2B – biochemical, FP readout, HTS, primary screen; inhibition, % (no concentration beside the values); cell-free LANA-H2A/H2B peptide, fluorescence polarization; 320,000 compounds, 0.6% hits; AID 2629, 2010; in the data active means inhibition mostly above about 10%, no sharp cut-off; inactive means mostly below about 6.7%;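 further: stock transfer was 7.5 nL into about 10 µL; 0% = median of vehicle wells and 100% = median of positive control wells; one replicate is shown; the record names a cut of 25% in any replicate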
UCH37 inh = inhibitors of human UCH37 deubiquitinase, primary screen, biochemical, Ub-AMC cleavage, fluorescence | AID 588478, 2011 | purified proteasome/UCH37 | 330,000 compounds, 0.33% hits | inhibition, % (test concentration not listed) | Ubiquitin carboxyl-terminal hydrolase isozyme L5 (Homo sapiens), Q9Y5K5;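 active means mean of two replicates above 20%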;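 further: 0% = compound-free wells with enzyme and 100% = wells lacking proteasome; stock transfer was 100 nL into about 20 µL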
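system = Proteasome-associated human UCH37 deubiquitinase | amount = 0.15 nM proteasome as dispensed | medium = pH 7.4 Tris-HCl (50 mM) with ovalbumin, ATP-MgCl2, DTT | incubation = 30 min preincubation with enzyme, 25 min cleavage at room temperature | detection = AMC fluorescence 355/460 nm | read-out basis = percent inhibition | controls = no-proteasome and no-compound wells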
E coli growth = E. coli growth inhibition, primary screen, OD600 | Escherichia coli growth, 23 h; active compounds read low | OD600 absorbance (no concentration beside the values) | 330,000 compounds, 0.21% hits | AID 1053175, 2014;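 active means OD600 absorbance below the run mean of sample wells minus 3.6 SD, in any replicate, cut at about 0.56 in these data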;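 further: stock transfer was 300 nL into about 60 µL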
ALR H2O2 inh = inhibitors of human ALR sulfhydryl oxidase, primary screen, biochemical, H2O2 detection, HRP-luminol luminescence, single point | 290,000 compounds, 3.8% hits | inhibition, % (concentration not given with the values) | purified ALR, DTT oxidation | FAD-linked sulfhydryl oxidase ALR (Homo sapiens), P55789;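 active means mean and each replicate at 75% or more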;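 further: stock transfer was 7.5 nL into about 7.5 µL; 0% = neutral wells and 100% = wells with inactivated enzyme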
Target sequence (P55789 whole entry, looked up): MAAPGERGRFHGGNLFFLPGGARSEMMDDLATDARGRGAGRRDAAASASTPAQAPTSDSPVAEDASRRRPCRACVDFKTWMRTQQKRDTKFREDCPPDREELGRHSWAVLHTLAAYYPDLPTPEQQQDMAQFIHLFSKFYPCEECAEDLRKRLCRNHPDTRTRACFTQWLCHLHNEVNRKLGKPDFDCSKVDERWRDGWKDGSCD
HNF4A DNA FP = change in binding of human HNF4A to DNA, primary screen, biochemical, fluorescence polarization, FITC-DNA | activity change, % at 10 µM | Hepatocyte nuclear factor 4-alpha (Homo sapiens), P41235 | 1 h | 360,000 compounds, 0.3% hits; in the data active means activity change above about 30%, passing the limit was not always enough;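 further: controls were the assay level and a saturating level of protein; the project sought stronger binding though the title names inhibitors; some compounds called inactive have numbers as strong as hits; positive values seem to mean higher polarization but the record does not say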
Target sequence (P41235 whole entry, looked up): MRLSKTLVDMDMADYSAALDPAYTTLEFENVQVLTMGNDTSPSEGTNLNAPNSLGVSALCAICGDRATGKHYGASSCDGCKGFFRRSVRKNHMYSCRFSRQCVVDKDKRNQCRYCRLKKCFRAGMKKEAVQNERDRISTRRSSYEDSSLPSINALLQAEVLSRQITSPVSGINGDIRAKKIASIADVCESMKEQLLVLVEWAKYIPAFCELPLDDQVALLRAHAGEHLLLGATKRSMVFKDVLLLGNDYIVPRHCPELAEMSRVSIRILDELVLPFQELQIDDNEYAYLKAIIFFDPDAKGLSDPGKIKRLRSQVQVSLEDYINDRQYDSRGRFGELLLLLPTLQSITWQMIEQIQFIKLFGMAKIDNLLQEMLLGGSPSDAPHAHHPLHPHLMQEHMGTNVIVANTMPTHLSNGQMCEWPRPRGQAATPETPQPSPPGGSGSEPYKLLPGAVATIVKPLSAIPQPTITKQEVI
* marks the source's active call; other numbers are inactive results; i = inactive; · = no result given; & = joins results of further samples. An excerpt (hit frequency here may not be typical).

SMILES	Beta2AR agonist	FGF22 binding	LANA-H2A inh	UCH37 inh	E coli growth	ALR H2O2 inh	HNF4A DNA FP
C/C(=N/O)c1ccc2ccc3ccccc3c2c1	-2	i	-4.7	·	·	99*	-1.3
COc1ccc(-n2c(O)c(C(C)=NC3CC3)c(=O)[nH]c2=O)cc1	4	·	-1.8	1.4	0.74	-4	-1.7
Nc1cccc(N=Cc2c(O)n(Cc3ccc(F)cc3)c(=O)[nH]c2=O)c1	5	·	-0.9	2.9	0.68	-32	3.6
C[C@]12CC[C@H](O)CC1=CCC1C2CC[C@@]2(C)C1CC[C@@H]2OCc1ccccc1 (stereo not given in full)	2	i	3.5	3.2	0.67	-2	5.2
COC(=O)c1ccccc1OP(=O)(c1cccc([N+](=O)[O-])c1)c1cccc([N+](=O)[O-])c1	-1	i	-3.4	1.6	0.67	-1	0.6
COC(=O)C1=C(c2ccccc2OCc2ccccc2)C[C@@H]2CC[C@H]1N2C(=O)NCCCOC(C)C	1	i	3.6	3.1	·	-8	-2.4
COc1ccc(OC)c(-n2c(O)c(C=Nc3c(C)n(C)n(-c4ccccc4)c3=O)c(=O)[nH]c2=S)c1	2	·	-3.2	·	·	3	15
COc1ccc2[nH]c3c(C)c4ccncc4c(C)c3c2c1	12	i	-0.5	-11	0.6	45	25
CCc1ccc(N2C(=O)NC(=O)/C(=C/c3ccsc3)C2=O)cc1	·	·	-4.3	5.4	0.68	7	·
CCN1C(=O)N(CC)C(=O)C2(Cc3ccccc3N3CCN(c4ccccc4)CC32)C1=O (stereo not given)	4	i	-4.5	3.7	0.67	12	-10
CCN(CC)S(=O)(=O)c1cc(NC(=O)C(C)N2CC=C(c3ccccc3)CC2)ccc1C (stereo not given)	-6	·	0.0	6.1	0.74	·	-3.7
COc1ccc(CNCCc2ccc3c(c2)OCO3)c(OC)c1OC	-7	i	-3.4	1.8	0.67	-15	4.8
CN1/C(=C\C=C2C(=O)NC(=O)NC2=O)C(C)(C)c2ccccc21	1	i	-6.1	39*	0.72	30	220
O=c1[nH]c(=S)n(-c2ccccc2)c(O)c1/C=N/N1CCOCC1	7	·	2.7	9.2	0.72	28	-2.5
O=S(=O)(NCc1ccccc1)c1cccc2nsnc12	-14	i	3.1	1.3	0.72	3	0.3
COc1ccccc1N1CCN(Cc2ccc(Br)cc2)CC1	-6	i	3.1	4.5	0.67	4	-1.7
CC(=O)c1c(C)[nH]c(C(=O)N2CCC3(CC2)OCCO3)c1C	-6	·	5.7	1.8	0.73	0	0.1
CNC(C)(C)Cc1ccccc1	-22	i	-0.2	3.4	0.69	-5	0.8
CNC(=O)Oc1cccc(-c2cn3cc(OC(=O)NC)ccc3n2)c1	0	i	-1.1	-49	0.64	32	-5.2
O=C(CF)NC(NC(=S)Nc1cccc([N+](=O)[O-])c1)C(Cl)(Cl)Cl (stereo not given)	2	·	-2.3	0.6	0.64	32	-0.1
Fc1ccccc1CNCCc1ccc2c(c1)OCO2	-1	i	-0.6	1.2	0.69	-9	-2.0
Cc1nc2cc(F)ccc2n1C1CCN(Cc2nnnn2CCc2ccccc2)CC1	-3	·	1.4	2.4	0.69	-18	0.6
CCC(=O)Nc1cc(C(=O)N2CCC3(CC2)OCCO3)ccc1S(=O)(=O)c1ccc(C)cc1	-2	·	3.5	1.9	0.7	-18	-0.5
COC(=O)c1cncn1C(C)c1ccccc1 (stereo not given)	-1	·	0.3	1.5	0.71	-11	1.8

Quoted from the listing.
Under ALR H2O2 inh, CNC(C)(C)Cc1ccccc1 is entered as -5
Under E coli growth, CC(=O)c1c(C)[nH]c(C(=O)N2CCC3(CC2)OCCO3)c1C is entered as 0.73
Under ALR H2O2 inh, CN1/C(=C\C=C2C(=O)NC(=O)NC2=O)C(C)(C)c2ccccc21 is entered as 30

Remaining list, next part:
SMILES	Beta2AR agonist	FGF22 binding	LANA-H2A inh	UCH37 inh	E coli growth	ALR H2O2 inh	HNF4A DNA FP
CCN1C(=O)C(=Cc2ccc(N3CCOCC3)o2)C(=O)N(CC)C1=S	6	i	-3.6	6.8	0.67	4	48*
CCC1C(c2cc(OC)c(OC)c(OC)c2)c2cc3c(cc2OC1N1CCCC1)OCO3 (stereo not given)	-1	i	·	·	·	·	4.0
Cc1ccc(NC(=O)c2snnc2C)cc1Cl	3	i	9.6	4.6	0.64	10	2.6
COc1cccc(C(=O)C2CCCN(Cc3ccon3)C2)c1 (stereo not given)	-5	i	0.2	0.1	0.64	-4	8.1
C/C(=N\N1CCCCCC1)c1c(O)n(-c2ccc(Cl)cc2)c(=O)[nH]c1=O	-13	i	2.2	4.5	0.66	-9	0.0
CN1C(=O)C(=Cc2sc(=O)n(-c3ccccc3)c2N(C)C)C(=O)N(C)C1=O	7	·	-1.8	6.9	0.66	12	12
CC(=Nc1ccccc1N)c1c(O)n(C)c(=O)[nH]c1=O	2	i	2.0	3.2	0.65	4	1.4
Cc1cccc(-n2c(O)c(C=NCCN3CCCCC3)c(=O)[nH]c2=O)c1	2	i	-1.9	0.4	0.7	1	-0.3
CC1C(c2ccccc2)OCCN1C (stereo not given)	-7	i	·	·	·	·	-0.3
O=[N+]([O-])c1ccc(N2CCCC2)cc1N/N=C1\CN2CCC1CC2	-11	·	3.9	·	·	-5	-1.1
COC(=O)COc1ccc(/C=C2\C(=O)NC(=S)N(c3ccc(C)cc3)C2=O)cc1OC	1	i	-1.5	3.1	0.7	7	-1.6
COc1cccc(N=Nc2c(O)[nH]c(=S)[nH]c2=O)c1	16	i	-1.7	17	0.67	-9	19
O=c1cc(C2CCNCC2)[nH][nH]1	0	·	-1.4	1.3	0.67	-37	-3.5
NC(=O)c1c(NC(=O)c2ccc(S(=O)(=O)N(CCCl)CCCl)cc2)sc2c1CCCCC2	-2	·	-108	-17	0.72	-5	2.3
CN(C)c1ccc(/C=C/c2cc[n+](C)c3ccccc23)cc1	-38&-48	i	·	1.6	·	·	3.0&37
NNC(=O)c1ccc(O)cc1	6	i	-1.8	-3.5	0.73	95*	3.8
Cc1ccc(N=Cc2c(O)n(C)c(=O)n(C)c2=O)cc1	-4	i	-2.9	1.1	0.67	-8	-0.4
Cc1cc(=O)oc2cc(OCC(=O)N3CCN(Cc4ccccc4)CC3)ccc12	-4	i	-4.2	-54	0.67	·	-1.2
Cc1ccc(-n2c(C)nc3ccccc3c2=O)c(C)c1	-9	i	-0.8	1.0	0.64	18	-1.4
Nc1ccc(C2(c3ccc(N)cc3)CN3CCC2CC3)cc1	3	·	0.1	-0.2	·	2	6.0
O=c1c2ccccc2[nH]c(=S)n1-c1ccc(Br)cc1	-2	i	0.0	1.4	0.65	3	3.2
O=C1NC(=O)N(Cc2ccccc2Cl)C(=O)/C1=C/c1cccs1	40	·	0.8	4.5	0.71	97*	0.7
CN1[C@@H]2CC[C@H]1CC(OC1c3ccccc3CCc3ccccc31)C2 (stereo not given in full)	26	i	-9.5	-1.7	·	-3	-2.5
CCOc1ccccc1N1C(=O)NC(=O)C(CCc2ccncc2)(CCc2ccncc2)C1=O	6	·	-1.0	1.1	0.74	-6	0.4

Limited to LANA-H2A inh and E coli growth (2 entries from above):
SMILES | LANA-H2A inh | E coli growth
CCOc1ccccc1N1C(=O)NC(=O)C(CCc2ccncc2)(CCc2ccncc2)C1=O | -1.0 | 0.74
NNC(=O)c1ccc(O)cc1 | -1.8 | 0.73

Gathered by group: the entries above with a nitro group on carbon
SMILES	Beta2AR agonist	FGF22 binding	LANA-H2A inh	UCH37 inh	E coli growth	ALR H2O2 inh	HNF4A DNA FP
COC(=O)c1ccccc1OP(=O)(c1cccc([N+](=O)[O-])c1)c1cccc([N+](=O)[O-])c1	-1	i	-3.4	1.6	0.67	-1	0.6
O=C(CF)NC(NC(=S)Nc1cccc([N+](=O)[O-])c1)C(Cl)(Cl)Cl (stereo not given)	2	·	-2.3	0.6	0.64	32	-0.1
O=[N+]([O-])c1ccc(N2CCCC2)cc1N/N=C1\CN2CCC1CC2	-11	·	3.9	·	·	-5	-1.1

(continued)
SMILES	Beta2AR agonist	FGF22 binding	LANA-H2A inh	UCH37 inh	E coli growth	ALR H2O2 inh	HNF4A DNA FP
Cc1nc2ccc(Cl)cc2c(-c2ccccc2)c1C(=O)O	4	i	2.2	1.7	0.69	-5	2.3
CCCCCn1c(=O)c(C(=O)Nc2cccc(C)n2)c(O)c2ccccc21	-2	i	-5.9	-17	0.71	-2	-1.1
CCC(C)/C=C(C)/C=C/C1=CC2=C(Cl)C(=O)C(C)(OC(C)=O)C(=O)C2=CO1 (stereo not given)	-4	·	2.0	3.3	0.78	-22	-0.2
CC=C(CC)C1(CCC)C(=O)NC(=S)NC1=O	4	i	·	·	·	·	6.5
O=C(c1cc(-c2ccccc2)on1)N1CCC2(CC1)OCCO2	·	·	-9.3	0.3	0.66	-16	·
CC1(C)COC(Nc2ccc(Cl)cc2)=N1	-3	·	-2.2	-3.2	0.62	1	2.5
CCCC(=O)NC1=C(N2CC2)C(=O)C(NC(=O)CCC)=C(N2CC2)C1=O	-6	i	·	12	0.66	·	3.8
CCOc1ccc(-n2c(O)c(C=NCCN3CCNCC3)c(=O)[nH]c2=O)cc1	5	·	-0.3	5.3	0.68	-4	5.2
O=C(CCN1C(=O)COc2ccccc21)N1CCC2(CC1)OCCO2	7	·	5.6	4.5	0.7	3	-0.6
CCCn1c(C)cc(C=O)c1C	4	i	0.5	2.5	0.72	-7	0.4
CN(C)C(=O)Oc1ccc2c(c1)O/C(=C\c1cccc(Cl)c1)C2=O	53*	i	22	-0.4	0.7	2	2.7
C#CCN1C(=O)C2(C(C#N)=C(N)OC(C)=C2C(=O)OCc2ccccc2)c2ccccc21 (stereo not given)	·	·	1.7	0.8	0.69	-16	-0.1
COC(=O)C1=C(c2ccc(F)cc2OCc2ccccc2)C[C@@H]2CC[C@H]1N2C(=O)N1CCCCC1	3	i	3.8	-0.3	·	-2	3.2
COc1ccc(CN2C(=O)NC(=O)/C(=C/c3cc(OC)c(OC)c(OC)c3)C2=O)cc1	-1	i	4.9	0.1	0.68	4	-1.6
COC(=O)C1=C(c2ccc(F)cc2OCc2ccccc2)C[C@@H]2CC[C@H]1N2C(=O)NCCN1CCOCC1	6	i	-2.0	3.8	·	26	0.8
COc1ccc(OC)c(-n2c(O)c(C=Nc3c(C)n(C)n(-c4ccccc4)c3=O)c(=O)[nH]c2=O)c1	-2	·	6.4	9.2	0.71	41	2.6
O=C(Cc1ccc(Cl)cc1)NCCN1CCN(C(=O)Cc2ccc(Cl)cc2)CC1	-2	i	-4.0	4.9	0.67	1	-0.3
Cc1ccc(C2N(c3ccccn3)C(=O)C3CCCN32)o1 (stereo not given)	-3	i	-6.7	6.1	0.69	0	-1.1
O=[N+]([O-])c1ccc(OP(=O)(O)Oc2ccc([N+](=O)[O-])cc2)cc1	4	i	·	4.1	0.67	·	0.2
O=C(CN1CCN(CCO)CC1)Nc1ccc(Cl)cc1C(=O)c1ccccc1	-2	·	-0.9	1.7	0.64	-2	-1.9
CC(N)Cc1c[nH]c2cc3c(cc12)OCCO3 (stereo not given)	·	·	-3.1	2.7	0.73	-1	4.5
Cc1cc(C(=O)OCC(=O)Nc2ccc(F)cc2)c(C)n1C1CC1	-1	i	3.4	1.3	0.65	-8	-2.0
CC(=O)NC(Cc1ccc(N(CCCl)CCCl)cc1)C(=O)O (stereo not given)	-7	i	6.9	2.4	0.71	52	2.3
c1ccc2c(c1)[nH]c1cnccc12	5	i	4.8&7.7	-113	0.63	·	2.2
CN(C)N=O	10	i	49*	·	·	-3	-3.5
Cc1ccc(CN2CCN(C)CC2)c(C)c1	8	·	-2.4	1.1	0.71	6	0.1
